High-throughput results deposited in PubChem BioAssay by National Center for Advancing Translational Sciences (NCATS).
SmPrx2 inh: Schistosoma Mansoni Peroxiredoxins (Prx2); Schistosoma mansoni peroxiredoxin 2 (Prx2); Potency, µM; 0.07% of 65,000 active; S. mansoni Prx2 activity coupled to TGR/GSH (TGR is thioredoxin glutathione reductase), NADPH fluorescence loss, qHTS; some inactives read as strong as hits; AID 448, 2006; active means full or partial inhibition curve with a strong effect at the top dose; inconclusive means weaker partial or single-point curve; inactive means no accepted curve; also: series up to 57 µM; many of its hits are not listed in these tables
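Activity is read as the drop in NADPH fluorescence (365/450 nm), recorded every 30 sec for 8 min after H2O2 addition. Prx2 is coupled to TGR-driven NADPH oxidation through glutathione, in phosphate buffer pH 7.4.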
LT uptake inh: qHTS Assay for Anthrax Lethal Toxin Internalization; Cells, anthrax lethal toxin internalization, FRET ratio (460/530); Potency, µM (series often up to 40 µM), for the others: top-dose activity change, negative = inhibition, usual class: inhibitors; 0.67% of 70,000 active; active = well fitted falling ratio curve with the 530 nm signal flat; inconclusive = other ratio curves, or a change in one channel alone; inactive = flat curves in the ratio and both channels; the % refers to the ratio; also: % is scaled to controls: 0 for no effect and ±100 for the full control effect; nearly all actives have a fitted effect of over 50% in size; tested in ME-180 cells; beta-lactamase reporter
* = called active by the depositor; ? = inconclusive; · = no result given; [ ] = another dose, or the depositor's remark. Potency is read from the fitted curve at half-maximal effect. Some of the compounds tested; rates above refer to the full screens.

SMILES	SmPrx2 inh	LT uptake inh
Cc1ccccc1OCc1nnc(SCC(=O)NCc2ccccc2)n1C	>57	2%
COc1ccc(C2CCN(Cc3cccnc3)CC2O)cc1 (stereo not given)	>57	6%
CC1=C(C(=O)Nc2ccc(F)cc2)C(c2ccc(C)o2)C2=C(CC(C)(C)CC2=O)N1 (stereo not given)	>57	0%
CC(=O)N1CCN(c2ccc(N=Cc3c(O)n(Cc4ccccc4)c(=O)[nH]c3=O)cc2)CC1	>57	?
c1ccc(CN2CCN(c3nc(-c4ccccc4)nc(-n4ccnc4)n3)CC2)cc1	>57	?
Cn1c(Cc2cccs2)nnc1SCc1nc2ccccc2[nH]1	>57	-2%
COC(=O)c1c(C(=O)OC)c(C)n(Cc2cccnc2)c1C	>57	3%
O=C1CSC(=O)N1CC(O)COc1ccc(Cl)cc1 (stereo not given)	·	-8%
CCCc1nc2sc3c(c2c(=O)n1N)CCC3	·	-10%
Cc1nn(Cc2ccccc2)c2c1C(c1ccncc1)C(C#N)=C(N)O2 (stereo not given)	·	10%
CC[N+](=O)[O-]	·	2%
O=C(O)c1ccccc1C(=O)NCc1cccnc1	>57	3%
COc1cccc(Cn2c(=O)c(-c3cccs3)nc3cnc(N4CCNCC4)nc32)c1	>11	?
O=C(COC(=O)C1COc2ccccc2O1)NC1CCS(=O)(=O)C1 (stereo not given)	>57	-7%
O=C(CS(=O)(=O)Cc1ccccc1)Nc1cccnc1	>57	15%
CCOc1ccccc1Nc1ncnc2ccccc12	>57	-12%
O=C(CCc1ccccc1)NCCCN1CCOCC1	>57	-13%
COc1cnn(-c2ccccc2)c(=O)c1N(C)C	>57	?
Cc1noc(C)c1-c1ccc2ncnc(Nc3ccc(F)cc3)c2c1	>57	?
CCC(c1nnnn1C(C)(C)CC)N(CCCO)Cc1cc2cccc(C)c2[nH]c1=O (stereo not given)	>57	-2%
O=C(c1cc(C(F)(F)F)cc(C(F)(F)F)c1)N1CCC2(CCCN(c3ccccn3)C2)CC1	>57	?
CC(Cc1ccccc1)C(=O)NCC1CC1 (stereo not given)	·	3%
C=CCn1c(SCn2nnc3ccccc3c2=O)nnc1-c1ccc(F)cc1	>57	-3%
CN(C)c1ccc(-c2nc(NCc3cccnc3)c3ccccc3n2)cc1	>57	?
O=C(CSc1nncs1)NC(=O)NCc1ccccc1	>57	-10%
SMILES	SmPrx2 inh	LT uptake inh
CCC1CCCCN1Cc1ccc(OC)c(OC)c1 (stereo not given)	>57	-20%
COc1cc2c(cc1OC)CN(C(=O)CSc1nnc(C)s1)CC2	>57	-11%
CC1(C)Cc2ccccc2C2CC(O)C(=O)N21 (stereo not given)	>57	-8%
Nc1nc(-c2cccc([N+](=O)[O-])c2)cc(-c2cc(-c3cccc([N+](=O)[O-])c3)nc(N)n2)n1	>57	?
CCOc1ccc(C2C(C(=O)c3ccco3)=C(O)C(=O)N2Cc2cccnc2)cc1OC (stereo not given)	>57	1%
COc1cc2c(cc1O)[C@H]1Cc3ccc(OC)c(O)c3CN1CC2	>57	-4%[3.58 µM]
O=C(CSc1nc2ccccc2c(=O)n1CCCO)NCc1ccccc1	>57	-7%
CCOc1ccc(-c2nnn(CC(=O)Nc3cc(OC)cc(OC)c3)n2)cc1OCC	>57	-11%
COc1cc(C(C)=O)ccc1OCC(=O)c1cc(C)n(C2CC2)c1C	>57	-2%
CNC(=O)c1ccccc1-c1ccccc1	>57	7%
c1ccc(-n2c(-c3ccncc3)nnc2-c2ccco2)cc1	>57	?
CCn1c(=O)c(-c2ccccc2)c(O)c2ccccc21	>57	19%
CCOc1ccc(N2C(=O)CC(SCCN)C2=O)cc1 (stereo not given)	>57	-9%
O=C(NC1CCCCC1)N1CCN(Cc2nc3ccccc3c(=O)[nH]2)CC1	>57	?
C=CCn1c(SCC(=O)Nc2ccc(N(C)C)cc2)nnc1-c1cccc(C)c1	>57	?
C1=CCC(/C=N/n2cnnc2)CC1 (stereo not given)	>57	-2%
COCc1nc2ccccc2n1CCCOc1ccccc1	>57	4%
COc1ccc(S(=O)(=O)NCCSCc2ccco2)cc1	>57	-4%
Cn1c(SC2C(=O)CC(C)(C)CC2=O)nnc1-c1ccco1	>57	-18%
CC1=C(C(=O)NCc2ccccc2)C(c2ccccc2OCC(N)=O)NC(=O)N1 (stereo not given)	>57	-5%
CCOc1cc(NC(=O)c2cnccn2)c(OCC)cc1NC(=O)c1ccc(OC)cc1	>57	-8%
Cc1ccc2c(c1)c(C)c(C)n2CC(O)CN1CCCCC1C (stereo not given)	>57	?
COc1ccccc1Nc1ncnc2ccccc12	>57	-8%
CCOC(=O)c1cc(-c2ccccc2)sc1N	>57	?
CC1CCC(C(C)C)C(OC(=O)CSc2n[nH]c(=O)[nH]c2=O)C1 (stereo not given)	>57	?

An excerpt of these results, as labelled records:
Nc1nc(-c2cccc([N+](=O)[O-])c2)cc(-c2cc(-c3cccc([N+](=O)[O-])c3)nc(N)n2)n1
  SmPrx2 inh: >57
  LT uptake inh: ?
COCc1nc2ccccc2n1CCCOc1ccccc1
  SmPrx2 inh: >57
  LT uptake inh: 4%
COc1cnn(-c2ccccc2)c(=O)c1N(C)C
  SmPrx2 inh: >57
  LT uptake inh: ?
CC(Cc1ccccc1)C(=O)NCC1CC1 (stereo not given)
  SmPrx2 inh: ·
  LT uptake inh: 3%

Two compounds picked at random from those above, as already listed:
SMILES	SmPrx2 inh	LT uptake inh
CCOc1ccc(N2C(=O)CC(SCCN)C2=O)cc1 (stereo not given)	>57	-9%
CCOc1ccc(C2C(C(=O)c3ccco3)=C(O)C(=O)N2Cc2cccnc2)cc1OC (stereo not given)	>57	1%

Back to the main list; the three compounds before the break are reprinted first.
SMILES	SmPrx2 inh	LT uptake inh
COc1ccccc1Nc1ncnc2ccccc12	>57	-8%
CCOC(=O)c1cc(-c2ccccc2)sc1N	>57	?
CC1CCC(C(C)C)C(OC(=O)CSc2n[nH]c(=O)[nH]c2=O)C1 (stereo not given)	>57	?
COc1cc(C(c2sc3nc(C)nn3c2O)N2CC(C)CC(C)C2)cc(OC)c1OC (stereo not given)	>57	4%
Cn1ccnc1Sc1nc2c(c(=O)n(C)c(=O)n2C)n1C	>57	12%
CCC(=O)N1CCc2cc(S(=O)(=O)NC(C(=O)NC(C)c3ccccc3)C(C)C)ccc21 (stereo not given)	>57	1%
Cc1ccc(-n2nnnc2SCc2nnc(-c3ccccc3Br)o2)cc1	>57	-21%
CCCc1nnc(NC(=O)c2c(O)c3cccc4c3n(c2=O)CCC4)s1	>57	-1%
O=C(CSc1ncnc2ccccc12)N1CCCC1	>57	18%
Cc1ccc(NC(=O)CSc2nnc(-c3cnccn3)n2Cc2ccco2)cc1C	>57	-25%
CCCCCc1c(C)nc(NCc2ccccc2)[nH]c1=O	>57	3%
O=S(=O)(c1cnccc1N1CCN(CCO)CC1)N1CCCC1	>57	-7%[8 µM]
CC(=NCC1CCCO1)c1c(O)[nH]c(=O)[nH]c1=O (stereo not given)	>57	-2%
CCCc1cc(N2CCCC(C(=O)NCc3ccc4c(c3)OCO4)C2)n2ncnc2n1 (stereo not given)	>57	-8%
CCOCC(=O)Nc1nc2ccc(S(C)(=O)=O)cc2s1	>57	11%
CCNc1c2c3c(cccc3n(C)c1=O)C(=O)c1ccccc1-2	>57	-14%
CCN(CC)S(=O)(=O)c1ccc(F)c(C(=O)NCCC(C)C)c1	>57	-10%
COc1ccccc1NC(=O)CSc1ccc2nnc(-c3ccccn3)n2n1	>57	6%
Cc1noc(C)c1-c1nc(Nc2ccncc2)c2ccccc2n1	·	7%
C=C1CC23C[C@H]4[C@@H]5[C@@]6(C)C[C@H](OC(=O)c7ccccc7)[C@@H](OC(C)=O)[C@]57[C@@H]2[C@@H](OC(C)=O)[C@H]1[C@@H](O)[C@H]3[C@H]7N4C6	>57	-3%[3.58 µM]
O=C1NC(NS(=O)(=O)c2ccccc2)(C(F)(F)F)C(=O)N1Cc1cccnc1 (stereo not given)	>57	11%
CCOC(=O)c1ccc(NC(=O)CS(=O)(=O)c2cn(CC)c3ccccc23)cc1	>57	-10%
CCCCNS(=O)(=O)c1ccc2nc(SCC(=O)c3ccc(C#N)cc3)[nH]c2c1	>57	-5%
Cc1cc(C(C)(C)C)ccc1OCCN(C)C	·	1%
O=C(Nc1ccc(-n2cnnn2)cc1)C1CCC1	>57	-9%
CCCCOC(=O)C1=C(C)Nc2ncnn2C1c1cccc(OC)c1 (stereo not given)	>57	17%
Cc1ccc(SCCC(=O)N(C)C)cc1	>57	-8%
CCOc1cc(CNc2ncc(-c3ccc(OC)cc3)n2C)ccc1O	>57	1%
SMILES	SmPrx2 inh	LT uptake inh
C/C=C(\C)CN1CCc2cc(OC)c(OC)cc2C1	>57	-3%
O=C(NC1CC1)c1ccc(CS(=O)(=O)c2c(Cl)cccc2Cl)o1	>57	2%
COC(=O)C1=C(C)N(C)C(C)=C(C(=O)OC)C1c1ccc(C(=O)OC)cc1	·	10%
O=C(CSc1nnc(-c2c[nH]c3ccccc23)o1)N(Cc1ccccc1)c1ccc(F)cc1	>57	?
Cc1ccc(/C=c2\s/c(=C(/C#N)C(=O)N3CCCC3)n(Cc3ccco3)c2=O)s1	>57	-15%
COC(=O)C(C(=O)OC)=C(/C=C/N(C)C)N(C)C	·	-6%
COc1ccc(NC(=O)c2nnn(Cc3ccc(SC)cc3)c2N)c(OC)c1	>57	?
O=C(O)CCc1nc(-c2ccccc2)no1	>57	6%
O=C1CSC(c2cn(-c3ccccc3)nc2-c2cc3ccccc3oc2=O)N1Cc1ccco1 (stereo not given)	>57	-7%
Cc1cc(C)n2nc(S(=O)(=O)NC3CCCCC3)nc2n1	>57	8%
COc1ccc(CN(C(=O)c2oc3ccccc3c2C)C2CCS(=O)(=O)C2)cc1OC (stereo not given)	>57	8%
O=C(c1cc(S(=O)(=O)N2CCCCC2)ccc1F)N1CCCCC1	>57	-14%
O=C(Cn1c(SCC(=O)N2CCCc3ccccc32)nc2ccccc21)N1CCCC1	>57	0%
O=C(NCc1ccc2c(c1)OCO2)c1cccc(F)c1	>57	-6%
Cc1c(NC(=O)Oc2ccccc2)sc(=S)n1C	·	-3%
C/C=C/c1ccc(OCCCN2C(=O)NC(C)(C)C2=O)c(OC)c1	>57	2%
COc1ccccc1CC(=O)Nc1ccc(O)cc1C(=O)O	>57	-2%
COc1ccccc1NC(=O)Nc1c(C)n(C)n(-c2ccccc2)c1=O	>57	0%
COCCCn1c(=N)c(C(=O)NCc2ccc3c(c2)OCO3)cc2c(=O)n3cccc(C)c3nc21	>57	16%
COC(=O)c1c(-c2cc(OC)c(OC)c(OC)c2)c2ccc(OCc3ccccn3)cc2c(=O)n1-c1ccc(N)cc1	>57	13%
COc1ccc(C2C(C#N)=C(N)Oc3c2oc(CO)cc3=O)c(OC)c1OC (stereo not given)	>57	-21%
CCCC(=O)Nc1ccc(N2CCN(C(=O)c3cccs3)CC2)cc1	>57	-5%
CCCCOc1ccccc1NC(=O)CSc1nnnn1C(C)(C)C	>57	-24%
COc1ccc(C)cc1NS(=O)(=O)c1cn(C)c(=O)n(C)c1=O	>57	10%
CCOC(=O)c1cnn(-c2cc(C)nc3c(-c4ccccc4)c(C)nn23)c1N	>57	-5%
SMILES	SmPrx2 inh	LT uptake inh
COC(=O)COc1ccc2c(=O)c(Oc3ccccc3)c(C)oc2c1	>57	-18%
CC1C2C(c3ccccc3)N(C)C(=O)N(C)C2N(C)C(=O)N1C (stereo not given)	>57	2%
O=C(Nc1nccs1)C1CCN(S(=O)(=O)c2cnc[nH]2)CC1	>57	8%
COc1cc(NC(=O)CCn2c(=O)[nH]c3ccsc3c2=O)cc(OC)c1	>57	5%
COc1ccc(C2=NOC3(CC(=O)N(c4ccc(C)cc4)C3=O)C2)c(OC)c1 (stereo not given)	>57	4%
Brc1ccc(C2=Nn3c(nnc3-c3ccncc3)SC2)cc1	>57	-15%
CCc1c(C)sc(NC(=O)c2cccs2)c1C(=O)OC(C)C	·	?
c1ccc(-c2ccc(-c3nc(-c4ccncc4)no3)cc2)cc1	>57	-6%
C=CCn1cnc2c(c1=O)c1nc3ccccc3nc1n2/N=C/c1cccc(OC)c1	>57	-5%
N#CC1=C(N)Oc2n[nH]c(-c3ccccc3)c2C1c1ccncc1 (stereo not given)	>57	7%
O=C(c1ccc(N2CCOCC2)nc1)N1CCCCC1	>57	3%
CN(CC(=O)NCc1ccc2c(c1)OCO2)S(=O)(=O)c1ccc(Br)s1	>57	-2%
COc1ccc2[nH]cc(CCNc3nc(-c4ccccc4CN(C)C)nc4ccccc34)c2c1	>57	?

Structural class: those above containing a tert-butyl group.
SMILES	SmPrx2 inh	LT uptake inh
Cc1cc(C(C)(C)C)ccc1OCCN(C)C	·	1%
CCCCOc1ccccc1NC(=O)CSc1nnnn1C(C)(C)C	>57	-24%
